LANA-H2B inh – blocks KSHV LANA binding to histone H2A/H2B | AID 2629 | cell-free LANA-H2A/H2B peptide, fluorescence polarization | 0.6% of 320,000 active | inhibition, % (test concentration not listed) | Q9QR71; in the data active = inhibition mostly above about 10%, no sharp cut-off; inactive = mostly below about 6.7%;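 also: stock transfer was 7.5 nL into about 10 µL; 0% = median of vehicle wells and 100% = median of positive control wells; one replicate is shown; the record names a cut of 25% in any replicate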
ALR inh – inhibitors of human sulfhydryl oxidase ALR; purified ALR, DTT oxidation, H2O2 HRP-luminol luminescence; inhibition, % (no concentration beside the values); P55789; 3.8% of 290,000 active; AID 485317;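 active = mean and each replicate at 75% or more; inconclusive = only one of the two met; inactive = neither met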;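 also: stock transfer was 7.5 nL into about 7.5 µL; 0% = neutral wells and 100% = wells with inactivated enzyme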
Target sequence (P55789 whole entry, looked up): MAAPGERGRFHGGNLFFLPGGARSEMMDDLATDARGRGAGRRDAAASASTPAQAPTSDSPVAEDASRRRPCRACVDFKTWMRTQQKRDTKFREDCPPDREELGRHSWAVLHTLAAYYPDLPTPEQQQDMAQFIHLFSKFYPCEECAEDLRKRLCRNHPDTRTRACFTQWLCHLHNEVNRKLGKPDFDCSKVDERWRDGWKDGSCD
T cruzi repl – T. cruzi replication inhibition; inhibition, % (test concentration not listed); T. cruzi beta-gal in NIH3T3, luminescence, 90 h; AID 1885; 1.4% of 300,000 active;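 active = mean inhibition across valid replicates above about 55%, limit read from the data; inconclusive = mean below that limit but half or more replicates reach it; inactive = mean below it, under half of replicates reach it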;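 also: signal also drops with host cell toxicity which is not excluded here; 0% = plate median of DMSO wells and 100% = zero luminescence signal; higher percent means less beta-gal luminescence so fewer parasites; stock transfer was 50 nL into about 50 µL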
A1 inh – inhibitors of the anti-apoptotic protein A1, read as caspase activation. MEF A1-2A-BIM cells, Caspase-Glo 3/7 luminescence, 3 h; percent of clofoctol response, vehicle zero. caspase activation, % (no concentration beside the values). 0.066% of 330,000 active. AID 2462;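 active = over half of replicate activation scores above 10%, or exactly half above 10 with the replicate mean above 10; inconclusive = replicate mean below 10 yet half the replicates above 10; inactive = over half of replicates below 10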;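 also: wells of about 30 µL received 50 nL stock; many hits fall short of the cut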
rRNA inh HTS – selective bacterial rRNA inhibition in E. coli; AID 720706; E. coli WT GFP vs humanized-ribosome RFP mutants, fluorescence, 24 h; hits give low values; DMSO median 0, no signal -100; 1.6% of 350,000 active; GFP signal change (wild-type ribosome), % (concentration not given with the values);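 active = significant combined selectivity score with lowered wild-type GFP, culture density cut under 30%, mutant RFP and density less affected; inactive = any of these conditions unmet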; also: one replicate is shown; some compounds called inactive have numbers as strong as hits
Calb FLC – affects C. albicans growth with fluconazole. 0.57% of 300,000 active. C. albicans CaCi-2 (fluconazole-resistant clinical isolate) + fluconazole, Alamar Blue growth, 48 h. AID 1979. growth inhibition, % (concentration not given with the values);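 active = most replicates above 75%; inconclusive = exactly half above 75%; inactive = most below 75%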;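 also: all wells also contain fluconazole at 8 µg/ml as a sub-toxic cotreatment; 0% = median of DMSO wells and 100% = median of geldanamycin control wells; wells of about 8 µL received 7.5 nL stock; the first replicate is given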
Beta cell apopt – beta cell apoptosis inhibition. protection from apoptosis, % (no concentration beside the values). INS-1E cytokine-induced death, ATP luminescence, 48 h; percent of positive-control rescue, neutral wells zero. 0.8% of 300,000 active. AID 435005;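 active = all replicates at 75% or more, or half of them and the mean; inconclusive = half reach 75% but not the mean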;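 also: 0% = cytokine-treated negative control wells and 100% = positive control rescue; higher means more ATP so stronger rescue from cytokine killing; wells of about 40 µL received 100 nL stock; the first replicate is given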
Beta2AR agonist – human beta-2 adrenergic receptor agonism by FAP. Am2.2-beta2AR cells, FAP receptor internalization, flow cytometry; reference of the scale not given here. response, % (concentration not given with the values). AID 504454. P07550. 0.43% of 340,000 active;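 active = response above a set limit, near 3 SD of response in nonfluorescent compounds, cut at about 42% in these data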;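 also: stock transfer was 100 nL into about 11 µL; a reference agonist was the positive control; negative values mostly stem from fluorescent compounds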
Target sequence (P07550 whole entry, looked up): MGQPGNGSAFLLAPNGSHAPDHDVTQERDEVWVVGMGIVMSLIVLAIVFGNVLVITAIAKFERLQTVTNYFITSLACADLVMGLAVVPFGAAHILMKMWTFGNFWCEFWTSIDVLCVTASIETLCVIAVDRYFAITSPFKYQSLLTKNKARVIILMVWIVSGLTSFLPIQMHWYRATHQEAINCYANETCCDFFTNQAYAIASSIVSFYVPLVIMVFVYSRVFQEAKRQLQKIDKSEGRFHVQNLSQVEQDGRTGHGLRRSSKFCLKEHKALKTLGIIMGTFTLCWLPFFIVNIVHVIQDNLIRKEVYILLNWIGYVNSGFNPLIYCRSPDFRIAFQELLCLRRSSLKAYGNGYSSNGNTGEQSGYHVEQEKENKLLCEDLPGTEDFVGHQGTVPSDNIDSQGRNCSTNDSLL
rRNA inh HTS OD600 – second read-out of rRNA inh HTS, no call of its own (marks repeat the call); OD600 change, %; measured here: OD600 growth;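 optical density of the mix in the first replicate; 0 = DMSO median and -100 = no signal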
rRNA inh HTS RFP – further read-out of rRNA inh HTS, marked with its call; RFP signal change, %; measured here: RFP humanized mutant strains;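 first replicate; 0 = DMSO median and -100 = no signal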
Starred values were filed as active, the others as inactive; u = inconclusive; x = no result given. Not all compounds are listed; rates above refer to the full screens.

SMILES | LANA-H2B inh | ALR inh | T cruzi repl | A1 inh | rRNA inh HTS | rRNA inh HTS OD600 | rRNA inh HTS RFP | Calb FLC | Beta cell apopt | Beta2AR agonist
CCC(C(=O)OC)n1cnc2c(oc3ccccc32)c1=O (configuration not stated) | 2.1 | -6 | -2 | -1.5 | 7 | -5 | 0.2 | -1 | x | 2
CC1CCN(S(=O)(=O)c2ccc(NC(=O)CSc3ncccc3C(=O)O)cc2)CC1 | -1.6 | -1 | 1 | 0.3 | x | x | x | -9 | -3 | -8
CCOC(=O)Cc1csc(NC(=O)c2sc3nc4ccc(CC)cc4cc3c2N)n1 | 0.2 | -4 | -8 | 0.1 | -7 | 0 | 14 | 15 | -5 | -34
C#CCOCCOCCOCCNc1nc(N2CCN(C(=O)[C@H](CCCCN)n3cc(CN)nn3)CC2)nc(N2CCN(C(=O)[C@H](CCC(=O)O)n3cc([C@@H](N)CCCCN)nn3)CC2)n1 | 4.2 | -1 | x | 0.0 | 11 | 2 | -2.7 | x | -2 | 2
O=C(NCC(c1ccco1)N1CCOCC1)c1ccc([N+](=O)[O-])cc1 (configuration not stated) | -5.3 | -27 | -2 | 0.6 | 14 | 4 | -1.9 | -3 | -5 | 2
NC(=O)c1nsc(C(=O)N(c2ccccc2)C(C(=O)NCC2CCCO2)c2cccs2)c1N (configuration not stated) | 4.6 | -7 | -8 | 0.3 | 5 | 5 | 3.2 | 1 | -2 | 8
CCOc1ccc(S(=O)(=O)N2CCN(C(=O)c3ccccc3Cc3ccccc3)CC2)cc1 | -7.8 | 2 | 3 | 1.3 | 13 | 12 | 2.8 | 4 | -2 | 4
CC(=O)C1=C(C)N(CC2CC2)C(=O)N[C@H]1c1ccccc1 | 1.2 | -14 | -1 | -1.0 | 1 | 14 | 1.0 | -1 | -6 | -2
O=c1c2ccccc2nc2n1CCCCC2 | 2.9 | 4 | 6 | -0.3 | x | x | x | -2 | -2 | 3
COc1ccc(CNCC(O)COc2ccc(C(C)(C)c3ccccc3)cc2)cc1 (configuration not stated) | -0.3 | -6 | 43 | -0.2 | -58 | -79 | -21 | 8 | 15 | 14
COc1ccc(CCNc2nc(N3CCOCC3)nc(N3CCOCC3)n2)cc1OC | 0.1 | 0 | 8 | -0.4 | x | x | x | -2 | -3 | 3
O=C(NCCNC(=O)c1cnccn1)c1ccc(Cl)cc1 | -2.2 | 4 | -8 | 0.0 | 1 | 13 | 0.2 | 10 | -3 | -2
O=C(OCCN=C1NS(=O)(=O)c2ccccc21)c1ccco1 | 1.1 | -1 | 1 | -0.3 | 16 | 11 | 0.5 | -2 | -2 | 6
Cc1ccccc1CN(c1ccc(C(=O)NCc2cccnc2)cc1)S(C)(=O)=O | -2.2 | 96* | 2 | 1.0 | -5 | 2 | 0.2 | u | x | -3
COc1ccc(OCC(O)CN(CC(O)COc2ccc(OC)cc2)c2cccc(O)c2)cc1 (configuration not stated) | 7.4 | -7 | 2 | -1.2 | -30* | -17* | 5.2* | -3 | x | 14
CC(C)(C)n1nc2c(c1NC(=O)COc1ccc(F)cc1)CS(=O)(=O)C2 | 0.7 | -8 | -9 | -0.7 | 14 | 22 | -0.8 | -1 | -3 | -6
O=C(NC(c1ccccc1)c1ccccc1)c1ccc(=O)[nH]n1 | -0.2 | -5 | -7 | 0.3 | 12 | 5 | -1.8 | -3 | -7 | -9
Cc1ccc(NC(=O)C2CC2c2ccccc2)c([N+](=O)[O-])c1 (configuration not stated) | 1.2 | x | 4 | -0.2 | -21 | -21 | -14 | 4 | -4 | 1
CCOC(=O)c1ccccc1NC(=O)CSc1nnc(Cc2cccn2C)n1-c1ccc(C)cc1 | -7.1 | -2 | 26 | -1.1 | x | x | x | -27 | 3 | 0
Cn1nc(C(F)(F)F)c(/C=N/OCc2c(Cl)cccc2Cl)c1Cl | -2.6 | -7 | -6 | -2.3 | x | x | x | 20 | x | 0
O=c1ccc2cc3c4c(c2o1)CCCN4CCC3 | -1.7 | -68 | -3 | 0.8 | 16 | 2 | 9.0 | -9 | -9 | 15
CCCc1[nH]n(-c2nc3ccccc3s2)c(=O)c1C=NCC(C)C | 1.6 | -8 | 29 | -0.2 | x | x | x | -6 | 1 | -12
CC(OC(=O)c1ccc2c(c1)S(=O)(=O)c1ccccc1C2=O)C(N)=O (configuration not stated) | 5.4 | -3 | -29 | 0.3 | 3 | 0 | -1.6 | -1 | -8 | -5
Cc1cc(SCC(=O)N(C)C2CCCCC2)nc2ccccc12 | 1.9 | -9 | x | 0.2 | -52 | -74 | -12 | x | -2 | -8
COc1ccc(NC(=S)NC(=O)CC(C)C)c(OC)c1 | -2.2 | -11 | 11 | -0.8 | -6 | -6 | -4.1 | 6 | x | -8
NC(=O)c1cc2nc(-c3ccco3)cc(C(F)(F)F)n2n1 | -7.1 | 0 | -9 | 0.0 | x | x | x | 2 | 3 | -20
CCCCN(CCCC)CC(O)CN(c1cc([N+](=O)[O-])ccc1OC)S(=O)(=O)c1ccccc1 (configuration not stated) | 5.8 | 3 | 20 | -1.1 | x | x | x | 4 | 3 | -5
CCCCOc1ccc(CSc2ncn[nH]2)cc1 | -8.1 | 4 | 5 | -3.6 | x | x | x | -15 | -10 | -7
CCS(=O)(=O)N1CCC(C(=O)NCCCOC)CC1 | -5.0 | -7 | -19 | -0.5 | x | x | x | -4 | -2 | 5
Cc1ccc(N2CC(C(=O)NCCS(=O)(=O)N3CCN(c4ccccc4)CC3)CC2=O)cc1C (configuration not stated) | 1.3 | -2 | -7 | -0.5 | 8 | 10 | 2.9 | -2 | x | 5
NC(=O)Nc1ccc(C(=O)OCC(=O)c2c[nH]c3ccccc23)cc1 | 0.5 | -5 | x | -1.6 | -2 | -5 | 7.9 | x | 3 | 1
COc1ccc(C(=O)COC(=O)CNC(=O)c2cc(OC)cc(OC)c2)cc1 | 3.1 | -1 | -14 | -0.7 | -2 | -5 | 3.6 | -11 | 2 | 1
COc1ccc(N2C(=O)CC(SCc3ccc(Cl)cc3)C2=O)cc1 (configuration not stated) | -2.6 | x | -14 | 0.1 | x | x | x | 4 | 1 | -4
Cc1ccc2ccc[n+](Cc3ccccc3)c2c1 | -0.2 | x | -12 | 0.0 | 14 | 15 | 2.6 | -15 | 12 | -1
CN(C)S(=O)(=O)c1ccc(NC(=O)CCNC(=O)c2ccc([N+](=O)[O-])cc2)cc1 | 0.5 | 0 | 8 | 0.4 | 2 | 2 | 2.4 | -8 | 4 | -3
COc1cc(NS(=O)(=O)c2ccc(NC(=O)c3ccc(S(=O)(=O)N4CCCC4)cc3)cc2)ncn1 | 3.8 | -4 | -11 | -0.1 | 5 | 11 | -5.9 | -5 | -2 | x
O=C(NC1CCCCC1)N(Cc1cc2cc3c(cc2[nH]c1=O)OCCO3)C1CCCCC1 | -1.2 | -2 | 6 | 0.2 | x | x | x | -5 | -1 | -7
COc1ccc(Cl)cc1C(=O)NCC#N | -0.7 | -2 | -4 | -0.1 | x | x | x | -3 | -3 | -2
O=c1cc(CO)oc(CN2CCN(c3cccc(C(F)(F)F)c3)CC2)c1O | -3.1 | u | 6 | -1.5 | x | x | x | -47 | 6 | 0
COc1ccc(C2(C(=O)Nc3ccc(C)c(C)c3)CCOCC2)cc1 | 1.8 | 1 | -16 | 0.1 | -7 | -8 | 1.2 | 9 | -3 | 8

An excerpt from above with just A1 inh, rRNA inh HTS OD600 and Calb FLC:
compound	A1 inh	rRNA inh HTS OD600	Calb FLC
COc1ccc(C(=O)COC(=O)CNC(=O)c2cc(OC)cc(OC)c2)cc1	-0.7	-5	-11
CCS(=O)(=O)N1CCC(C(=O)NCCCOC)CC1	-0.5	x	-4
CC(OC(=O)c1ccc2c(c1)S(=O)(=O)c1ccccc1C2=O)C(N)=O (configuration not stated)	0.3	0	-1
Cc1cc(SCC(=O)N(C)C2CCCCC2)nc2ccccc12	0.2	-74	x
CCCCOc1ccc(CSc2ncn[nH]2)cc1	-3.6	x	-15

Entries shown so far containing a thiophene ring, fused or not:
SMILES | LANA-H2B inh | ALR inh | T cruzi repl | A1 inh | rRNA inh HTS | rRNA inh HTS OD600 | rRNA inh HTS RFP | Calb FLC | Beta cell apopt | Beta2AR agonist
CCOC(=O)Cc1csc(NC(=O)c2sc3nc4ccc(CC)cc4cc3c2N)n1 | 0.2 | -4 | -8 | 0.1 | -7 | 0 | 14 | 15 | -5 | -34
NC(=O)c1nsc(C(=O)N(c2ccccc2)C(C(=O)NCC2CCCO2)c2cccs2)c1N (configuration not stated) | 4.6 | -7 | -8 | 0.3 | 5 | 5 | 3.2 | 1 | -2 | 8

(further entries)
SMILES | LANA-H2B inh | ALR inh | T cruzi repl | A1 inh | rRNA inh HTS | rRNA inh HTS OD600 | rRNA inh HTS RFP | Calb FLC | Beta cell apopt | Beta2AR agonist
Cc1cc(C)c2c(c1)/C(=N/NC(=S)Nc1ccc(F)cc1)CCC2 | 0.6 | -12 | -9 | 0.2 | x | x | x | -3 | -5 | -6
Cc1ccc(C)c(S(=O)(=O)N2CCCC2CNC(=O)c2ccc([N+](=O)[O-])cc2)c1 (configuration not stated) | -3.9 | -9 | 27 | -0.3 | -5 | 2 | -2.7 | -4 | x | -2
CC(=O)N1c2ccc(S(=O)(=O)N3CCOCC3)cc2CC1C (configuration not stated) | -4.8 | -5 | -13 | 1.0 | 9 | 1 | 0.3 | -6 | -1 | 9
Cc1cc(OCC(=O)OCC(=O)N(C)c2c(N)n(Cc3ccccc3)c(=O)[nH]c2=O)ccc1Cl | 0.0 | -8 | -7 | -1.7 | 6 | 10 | 0.9 | 4 | x | -4
COc1ccccc1N(O)C1CC(=O)N(c2ccc(Br)cc2)C1=O (configuration not stated) | 4.4 | x | 1 | 0.8 | x | x | x | 1 | -2 | 7
CC(C)CC(=O)N1CCC(N(CCc2ccccc2)Cc2ccccc2)CC1 | -2.8 | -17 | 49 | 0.5 | -17 | -17 | 0.9 | -13 | 5 | 9
CCCCc1ccc(NS(=O)(=O)N(C)C)cc1 | 1.7 | -1 | 8 | -0.1 | x | x | x | -13 | 0 | -2
O=C1[C@@H]2Cc3c([nH]c4ccccc34)C(c3ccccc3)N2C(=O)CN1C1CC1 (some centres not stated) | -1.1 | -5 | -1 | 0.2 | -1 | -2 | 3.0 | 11 | 0 | -13
O=C1CN(C(=O)COC(=O)c2ccccc2NC(=O)c2ccco2)c2ccccc2N1 | 6.6 | -4 | -2 | -0.7 | x | x | x | 9 | -7 | -2
CC1(C)CC(=O)C2=C(C1)N(c1ccc(F)cc1)C(=O)C2(NC(=O)c1ccccc1)C(F)(F)F (configuration not stated) | 1.0 | 1 | -7 | 0.1 | x | x | x | -5 | -5 | x
C[C@H](NC(=O)OCc1ccccc1)c1nnc([C@H](Cc2ccccc2)NC(=O)OC(C)(C)C)o1 | -0.7 | -27 | -8 | 0.4 | -19 | -24 | 5.3 | 15 | -7 | -3
